# Screens as filed in PubChem BioAssay.
# Autofluor counter: compound fluorescence in toxin protease inhibitor counterscreen; compound autofluorescence counterscreen, microsphere flow cytometry; active compounds read high; fluorescence intensity (test concentration not listed); 3.1% of 360,000 active; AID 624483;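 active = at least 3 SD above the mean of all compounds, about 16000 in these data; inconclusive = too few beads counted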;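 note: 100 nL of 1 mM stock went into each well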
# BJeLR viability: BJeLR cell viability loss; BJeLR (HRASV12) viability, CellTiter-Glo ATP luminescence, 48 h; reference of the scale not given here; inhibition, % (no concentration beside the values); 0.17% of 300,000 active;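 active = replicate mean above 50%; inconclusive = above 50% but judged a plate artefact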;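 note: 50 nL library stock added to about 25 µL; numbers are from one replicate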
# PrP 5UTR inh: inhibition of PrP 5' UTR reporter expression; cell-based PrP 5' UTR mRNA reporter, plate reader; inhibition, % (no concentration beside the values); 0.35% of 340,000 active; AID 488862;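 active = every replicate at 50% or more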;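 note: 0 = median of the neutral control wells; tested in H4 reporter cells; numbers are from one replicate; inactives centre near -14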
# Sa RN4220 lethal: kills Staphylococcus aureus RN4220. S. aureus RN4220 growth, OD600, 16 h. inhibition, % (concentration not given with the values). 0.33% of 330,000 active. AID 1259311;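 active = z-score of -3 or lower and OD600 up to 0.18 on both plates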;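 note: plate controls were untreated cells for no effect and reference antibiotic for full effect; stock transfer was 100 nL into about 80 µL; one replicate is shown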
# Mtb hypoxia rep: inhibitors of hypoxia-regulated fluorescent reporter in Mycobacterium tuberculosis; M. tuberculosis hypoxia-regulated fluorescent reporter, fluorescence; fluorescence inhibition, % (concentration not given with the values); 0.1% of 300,000 active; AID 1159583;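 active = 35 to 45% if threefold the growth effect, above 45% if 1.5-fold the growth effect; inactive = the rest, general growth blockers included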;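 note: wells of about 50 µL received 100 nL stock; 0% = vehicle wells and 100% = reference inhibitor wells; whole bacteria with a GFP reporter of the hypoxia response; strong numbers were not always called active; many hits fall short of the cut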
# ugtP null kill: kills S. aureus RN4220 lacking UgtP | S. aureus RN4220 ugtP deletion, OD600 growth, 16 h; some inactives read as strong as hits | growth inhibition, % (test concentration not listed) | 0.54% of 330,000 active | AID 1259309;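 active = z-score under -3 and OD600 up to 0.15 on both plates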;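 note: plate controls were untreated wells for no effect and antibiotic for full effect; wells of about 80 µL received 100 nL stock; the first replicate is given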
# Mtb hypoxia rep growth: second read-out of Mtb hypoxia rep, no call of its own (marks repeat the call); growth inhibition, %; measured here: M. tuberculosis growth (absorbance);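 0% = vehicle and 100% = reference antibiotic; read after six days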
# An asterisk follows results filed as active; ? = inconclusive; . = not tested or not shown.
SMILES,Autofluor counter,BJeLR viability,PrP 5UTR inh,Sa RN4220 lethal,Mtb hypoxia rep,Mtb hypoxia rep growth,ugtP null kill
CC(C)(CNC(=O)C1CCN(S(=O)(=O)c2cc([N+](=O)[O-])ccc2Cl)CC1)N1CCOCC1,4454,.,-23,1.9,-3,14,1
O=C(c1cccc(S(=O)(=O)N2CCc3ccccc3C2)c1)N1CCN(c2ccc(O)cc2)CC1,1890,1,1,4.2,0,2,0
COc1ccc(CNC(=O)C2CCCN(S(=O)(=O)c3c(C)noc3/C=C/N(C)C)C2)cc1 (stereo not given),6624,10,-11,1.4,9,0,3
COCC(=O)N(Cc1cc2ccccc2[nH]c1=O)c1ccc(OC)cc1,4862,3,-14,-1.5,.,.,-5
CCn1nc(NS(=O)(=O)c2ccccc2)c2cc3cc(C)ccc3nc21,4319,6,-16,-4.2,4,-2,-11
COC(=O)c1c(N2C(=O)CC(Sc3ccccc3C(=O)O)C2=O)sc(C)c1C (stereo not given),3913,0,-82,2.1,-5,12,-4
Cn1c(NNC(=O)c2cccc3ccccc23)cc(=O)n(C)c1=O,5997,-2,-20,-5.4,3,10,-2
COc1cccc(-n2nc(C(=O)N3CCC4(CC3)OCCO4)c3ccccc3c2=O)c1,2798,.,10,-4.2,.,.,-6
NC(=O)C(c1ccccc1)c1ccc(C(=O)c2ccccc2)cc1 (stereo not given),3528,19,-12,0.4,10,7,17
COc1ccc(NC(=O)c2cc(-c3cc(C)c(C)cc3O)n[nH]2)c(OC)c1,3609,-10,10,-2.3,-5,9,-2
COc1ccc(COC(=O)C2CCN(S(=O)(=O)c3ccc(F)cc3)CC2)cc1,5087,0,-1,1.9,3,-3,4
CCOc1cc(C=NNC(=O)OC)ccc1OCCSc1ccc(Cl)cc1,.,.,.,8.1,0,-2,14
Cc1cc2c(s1)CCCCC(=O)N2,3000,2,-15,-0.2,-5,11,-5
Cc1cccc(NC(=O)CN2C(=O)N/C(=C/c3cc(C)n(-c4cccnc4)c3C)C2=O)c1,5278,-5,-20,4.9,3,-3,-3
CN(Cc1ccc(OC(F)F)cc1)C(=O)c1ccc2c(=O)n3c(nc2c1)CCC3,5990,-16,-5,4.7,4,5,6
COC(=O)C1=C(c2ccc(OC)c(OC)c2)CC2CCC1N2C(=O)N1CCCCC1 (stereo not given),.,.,.,5.9,7,3,-1
Cc1cccc(OCC(=O)N/N=C/c2sc(=O)n(Cc3cccc(C(=O)O)c3)c2Cl)c1,4645,8,-13,.,.,.,.
O=C(COc1coc(CN2CCN(c3ccccc3F)CC2)cc1=O)NCC1CCCO1 (stereo not given),.,7,-18,1.3,7,1,4
O=C(O)CCCC(=O)N1CCN(c2nc(-c3ccccc3Cl)c3cc(Br)ccc3n2)CC1,3692,4,-11,15,-2,7,40
CN1C(=O)C(C2c3ccccc3C(=O)N2Cc2ccccc2)C(=O)N(C)C1=O (stereo not given),2766,0,-3,-2.1,.,.,-3
COC(=O)N/N=C\c1cc(Br)ccc1OCc1ccccc1,10869,3,-9,.,.,.,.
Cn1c(=O)oc2cc(S(=O)(=O)Nc3cccc(C(=O)O)c3)ccc21,19703*,.,-9,5.8,-3,6,-14
Cn1c(-c2ccc(C(C)(C)C)cc2)n[nH]c1=S,2801,3,-1,8.1,2,5,-10
Cc1ccc(C)c(N(C(=O)Cn2nnc(-c3cccs3)n2)C(C(=O)NC2CC2)c2ccc(C)o2)c1 (stereo not given),10899,5,-1,2.1,-3,-1,-4
Cn1ncc(Br)c1C(=O)NC(=S)N1CCN(c2ccccn2)CC1,2961,9,-14,0.3,2,6,6
# Remaining list, next part
SMILES,Autofluor counter,BJeLR viability,PrP 5UTR inh,Sa RN4220 lethal,Mtb hypoxia rep,Mtb hypoxia rep growth,ugtP null kill
CC1=C(C(=O)OC2CCCCC2)C(c2ccco2)n2ncnc2N1 (stereo not given),5425,1,-18,5.2,.,.,5
C/C(CC(=O)NCCc1ccccc1)=N\NC(=O)COc1ccc(Br)cc1,6299,8,-18,.,.,.,.
CCOC(=O)CSc1ccc(-c2nc3cc(C)c(C)cc3[nH]2)cn1,3958,-7,-40,0.6,16,32,-17
C=C[C@@]1(C)CC(=O)[C@]2(O)[C@@]3(C)[C@@H](O)CCC(C)(C)[C@@H]3[C@H](O)[C@H](OC(C)=O)[C@@]2(C)O1,4330,-10,1,.,.,.,.
Cc1cc(OCc2nc(-c3ccncc3)no2)cc(C)c1Cl,2013,8,-8,7.3,18,4,-6
C=CCNc1nc(N)c(C(=C(C#N)C#N)c2ccccc2)s1,5120,-5,-2,9.5,2,13,-2
CN(C)c1nc(Oc2ccc(/C=N/O)cc2)nc(N(C)C)n1,2837,0,-11,.,.,.,.
O=C(CN1C(=O)c2ccccc2C1=O)NCc1ccc(F)cc1,3584,-6,0,3.4,5,1,2
CN(C)c1ccc(C=NNc2nc3c([nH]2)c(=O)n(C)c(=O)n3C)cc1,3976,.,-35,1.6,16,5,0
COc1ccc(-c2nnnn2-c2ccccc2OC)cc1,7771,1,-26,3.3,9,1,8
O=C(COc1ccc(-c2nnco2)cc1)NC1CCS(=O)(=O)C1 (stereo not given),3444,.,-11,2.5,-1,-3,3
Cc1ccc(N=Cc2c(O)n(-c3nccs3)c(=O)c3ccccc23)cc1,9130,2,-5,9.5,-4,4,-13
O=C(O)c1cccc(NC(=O)c2cccc(S(=O)(=O)N3CCc4ccccc43)c2)c1,5687,3,-8,4.8,6,-6,4
CCN1CCN(C(=O)CCc2nnc3ccc(N4CCC5(CC4)OCCO5)nn23)CC1,5564,-3,-20,2.7,17,-1,12
CCc1ccc(NC(=O)c2ccc(Cn3cc([N+](=O)[O-])cn3)cc2)cc1,2567,18,-35,18,-4,1,6
Cc1cccc2cc(C#N)c(NCCNS(=O)(=O)c3ccc4c(c3)OCCO4)nc12,4640,9,8,9.7,-6,-5,-1
CCCCNC(=O)Nc1cnn(CC)c1C(N)=O,4697,5,-5,3.0,-7,2,-1
C/C(=N\NC(=O)c1nnn(-c2nonc2N)c1CN1CCc2ccccc21)c1ccccc1O,5067,17,1,.,.,.,.
Cc1cnc(C(=O)OCC(=O)Nc2ccc(Cl)cc2)cn1,11593,3,-31,4.8,8,7,7
c1cc2ccc3ccc(CN4CCOCC4)c4ccc(c1)c2c34,6000,-13,0,-1.4,9,11,47
O=c1oc2ccccc2c(NCCc2ccccc2)c1[N+](=O)[O-],10042,17,-18,4.9,5,-3,-5
CC1CCN(c2ccc3nnc(CCC(=O)NCCCOC(C)C)n3n2)CC1,3838,0,-9,-0.5,3,9,4
N/C(=N\c1nc2c(c(=O)[nH]1)CCC2)Nc1ccccc1,2589,-8,-25,.,.,.,.
NS(=O)(=O)c1cccnc1Nc1ccc(Cl)c(Cl)c1,4830,0,-33,-0.9,.,.,-13
Cc1ccc(C)c(NC(=O)CCC(=O)N/N=C2/CC(=O)CC(C)(C)C2)c1,3335,2,-28,.,.,.,.
# (cont.)
SMILES,Autofluor counter,BJeLR viability,PrP 5UTR inh,Sa RN4220 lethal,Mtb hypoxia rep,Mtb hypoxia rep growth,ugtP null kill
COc1cc(C=NNC(=O)CCNC(=O)c2ccccc2Cl)ccc1O,.,.,.,2.8,1,4,1
COC(=O)c1cc(S(=O)(=O)NCCc2ccc(SC)cc2)c[nH]1,5097,7,1,3.4,9,9,4
CC(C)C1CN=C2N(CCNC(=O)CCC3CCCCC3)C(Cc3ccc(O)cc3)CN21 (stereo not given),.,.,.,-3.8,-4,17,-1
Cc1cc(=O)oc2cc(OCC(=O)N3CCCC(C)C3)ccc12 (stereo not given),?,8,-13,-3.7,4,12,-3
O=C(NN=Cc1cccc(F)c1)c1cc(-c2ccco2)nc2ccccc12,.,.,.,5.9,12,3,0
COc1ccc(C(=O)CCS(=O)(=O)c2ccc(C)cc2)cc1OC,5787,-9,-10,6.1,7,1,9
C[N+]1(CC(=O)OCCCc2ccccc2)CCOCC1,2396,-9,-36,3.0,5,5,3
CC(=O)c1cccc(NC(=O)N2CCC(C(=O)c3ccc(F)cc3)CC2)c1,6214,11,-12,-2.4,-7,8,1
CC1CC2=C(NC(=S)NC2c2ccccc2F)/C(=C/c2ccccc2F)C1 (stereo not given),3596,5,-5,-10,3,4,-2
Cc1ccc(NC(=S)Nc2nc(CC(=O)Nc3ccccc3)cs2)cc1,8488,-5,-35,0.2,6,13,-10
N#Cc1nc(-c2ccccc2Cl)oc1N1CCOCC1,6699,-6,-3,4.8,14,2,7
COc1ccc(/C=C(\NC(=O)c2cccs2)C(=O)Nc2ccccc2C)cc1OC,9260,-5,-28,1.8,8,11,14
O=C1CCC(C(=O)Nc2cccc(S(=O)(=O)Nc3ccccc3F)c2)=NN1,3741,.,-9,5.8,10,9,3
CCOc1ccc(OCC(=O)Nc2c3c(nn2C(C)(C)C)CS(=O)(=O)C3)cc1,5099,-5,-8,5.2,6,3,3
COc1ccc(/C=N/c2nc3ccccc3n2C)cc1OC,12830,-14,-20,.,.,.,.
N/C(=N\c1nc2c(c(=O)[nH]1)CCCC2)Nc1ccccc1Sc1ccccc1,10958,-4,-21,-0.2,5,9,-14

# By substructure, the compounds so far with an aryl methoxy group.
SMILES,Autofluor counter,BJeLR viability,PrP 5UTR inh,Sa RN4220 lethal,Mtb hypoxia rep,Mtb hypoxia rep growth,ugtP null kill
COc1ccc(CNC(=O)C2CCCN(S(=O)(=O)c3c(C)noc3/C=C/N(C)C)C2)cc1 (stereo not given),6624,10,-11,1.4,9,0,3
COCC(=O)N(Cc1cc2ccccc2[nH]c1=O)c1ccc(OC)cc1,4862,3,-14,-1.5,.,.,-5
COc1cccc(-n2nc(C(=O)N3CCC4(CC3)OCCO4)c3ccccc3c2=O)c1,2798,.,10,-4.2,.,.,-6
COc1ccc(NC(=O)c2cc(-c3cc(C)c(C)cc3O)n[nH]2)c(OC)c1,3609,-10,10,-2.3,-5,9,-2
COc1ccc(COC(=O)C2CCN(S(=O)(=O)c3ccc(F)cc3)CC2)cc1,5087,0,-1,1.9,3,-3,4
COC(=O)C1=C(c2ccc(OC)c(OC)c2)CC2CCC1N2C(=O)N1CCCCC1 (stereo not given),.,.,.,5.9,7,3,-1
COc1ccc(-c2nnnn2-c2ccccc2OC)cc1,7771,1,-26,3.3,9,1,8
COc1cc(C=NNC(=O)CCNC(=O)c2ccccc2Cl)ccc1O,.,.,.,2.8,1,4,1
COc1ccc(C(=O)CCS(=O)(=O)c2ccc(C)cc2)cc1OC,5787,-9,-10,6.1,7,1,9
COc1ccc(/C=C(\NC(=O)c2cccs2)C(=O)Nc2ccccc2C)cc1OC,9260,-5,-28,1.8,8,11,14
COc1ccc(/C=N/c2nc3ccccc3n2C)cc1OC,12830,-14,-20,.,.,.,.

# Not a hit list; 3.9% or so of the library scored in one or more.
